Sfp PPTase inh: qHTS Assay for Inhibitors of Bacillus subtilis Sfp phosphopantetheinyl transferase (PPTase) | Potency, µM, for the others: max response, negative = inhibition, actives largely listed as inhibitors | actives 3.5% (n = 310,000) | AID 1490, 2009 | Biochemical Sfp PPTase activity, qHTS | 4'-phosphopantetheinyl transferase ffp (Bacillus subtilis), Q9F4F7; active = well fitted inhibition curve with a large enough effect; inconclusive = small, poorly fitted or top-dose-only effect, or another doubt; inactive = no such curve, though single readings can be large or run the other way;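 also: the enzyme is Sfp with the accession as filed and its product quenches rhodamine fluorescence; potency is read from the fitted curve at half-maximal effect; 0% = enzyme reaction without inhibitor and -100% = no enzyme wells; top concentration of the series not given in the record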
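Sfp 15 nM + cpd, 15 min RT; start w/ rhodamine-CoA 5 uM, BHQ-2-YbbR 12.5 uM (final); 50 mM Hepes pH 7.6, 10 mM MgCl2, 0.01% NP-40, 0.01% BSA; read 525/598 nm at 0 and 30 min.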
CtBP-E1A inh: qHTS Assay for Inhibitors of the CtBP/E1A Interaction | CtBP / adenovirus E1A interaction (AlphaScreen) | AlphaScreen GST-E1A/His-CtBP binding, 1536-well; active compounds read low; control for the full effect not named in the record | activity change, % (concentration not given with the values) | actives 0.49% (n = 340,000); in the data active means activity change below about -65%; inconclusive means about -30% to -65%; inactive means above about -30%; also: % is scaled to controls: 0 for no effect and ±100 for the full control effect
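Protein mix (5X: 125 nM each GST-E1A, His-CtBP) was incubated with pinned compound 2 h at 37 deg C in dark, in 50 mM Tris pH 8.0 buffer with 300 mM NaCl. Glutathione donor and nickel acceptor beads followed; AlphaScreen signal read after 1 h.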
PINK1 modulator: A Quantitative High throughput Screen to Identify Chemical Modulators of PINK1 Expression; PINK1 immunofluorescence, high-content cytometry, 24 h; Potency, µM (doses to about 76.6 µM), for the others: at the top dose activation (PINK1 increase), usual class: activators; actives 0.2% (n = 410,000); AID 624263, 2012; active = well fitted activation curve with a large enough effect; inconclusive = small, poorly fitted or top-dose-only effect; inactive = flat fitted curve, though single readings scatter; cell line not stated here;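 also: potency is read from the fitted curve at half-maximal effect; % of control where 0% means no effect; nearly all actives have a fitted effect of over 65% in size; a mitochondrial uncoupler was the plate control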
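A stable cell line was treated with compounds at 5 concentrations for 24 hours, with CCCP as control. PINK1 levels and mitochondrial localization were measured by immunofluorescence with mitochondrial, cell and nuclear markers after fixation, read by laser-scanning cytometry.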
Six1-Eya2 inh: qHTS Assay for Inhibitors of the Six1/Eya2 Interaction; Homeobox protein SIX1 (Homo sapiens) + Protein phosphatase EYA2 (Homo sapiens), …; AlphaScreen GST-Six1/His-Eya2 binding, biochemical; active compounds read low; control for the full effect not named in the record; activity change, % (test concentration not listed); actives 0.56% (n = 360,000); in the data active = activity change below about -65%; inconclusive = about -30% to -65%; inactive = above about -30%; also: % is scaled to controls: 0 for no effect and ±100 for the full control effect
Target sequence (O00167 whole entry, looked up): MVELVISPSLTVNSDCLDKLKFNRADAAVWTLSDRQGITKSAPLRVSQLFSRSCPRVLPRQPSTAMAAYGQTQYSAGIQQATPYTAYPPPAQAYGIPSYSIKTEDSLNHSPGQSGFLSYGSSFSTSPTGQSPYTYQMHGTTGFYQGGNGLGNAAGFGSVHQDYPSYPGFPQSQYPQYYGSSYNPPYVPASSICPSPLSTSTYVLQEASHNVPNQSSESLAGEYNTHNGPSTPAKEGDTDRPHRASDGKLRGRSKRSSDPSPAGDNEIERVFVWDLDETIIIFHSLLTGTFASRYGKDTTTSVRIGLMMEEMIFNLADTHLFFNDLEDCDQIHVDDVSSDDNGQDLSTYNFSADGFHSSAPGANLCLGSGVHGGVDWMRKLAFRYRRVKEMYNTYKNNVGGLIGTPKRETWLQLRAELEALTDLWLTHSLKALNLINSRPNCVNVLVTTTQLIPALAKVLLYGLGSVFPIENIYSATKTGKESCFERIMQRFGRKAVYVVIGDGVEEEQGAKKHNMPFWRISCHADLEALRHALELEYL
Target sequence (Q15475 whole entry, looked up): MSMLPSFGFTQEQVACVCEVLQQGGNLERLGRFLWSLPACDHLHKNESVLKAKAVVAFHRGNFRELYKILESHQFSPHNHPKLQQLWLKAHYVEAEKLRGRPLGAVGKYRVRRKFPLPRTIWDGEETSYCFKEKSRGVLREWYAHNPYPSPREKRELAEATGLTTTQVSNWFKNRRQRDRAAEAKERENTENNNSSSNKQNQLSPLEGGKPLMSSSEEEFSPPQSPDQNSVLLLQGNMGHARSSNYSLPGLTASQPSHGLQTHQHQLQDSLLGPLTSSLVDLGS
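GST-Six1 + His-Eya2 (5X stock: 250/500 nM); Tris pH 8.0, 300 mM NaCl, 0.05% BSA, 0.02% Tween 20; GSH donor/Ni acceptor beads; 1 h 37 °C dark; AlphaScreen readout.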
D2 ag: Beta-Arrestin HTS for Positive Allosteric Modulators of the Human D2 Dopamine Receptor: Agonists | D(2) dopamine receptor (Homo sapiens), P14416 | activation, % (concentration not given with the values) | DiscoveRx PathHunter D2 beta-arrestin, luminescence, 90 min; 100% = 57 uM dopamine signal | actives 0.084% (n = 360,000); in the data active = activation above about 40%; inconclusive = about 15% to 40%; inactive = below about 15%; also: compound concentration not given in the record; the text of the record calls up to 30% inactive
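DiscoveRx PathHunter D2 beta-arrestin cells (2,100/well) attached overnight, then compound-stimulated 90 min at 37 C in HBSS/10 mM HEPES/0.1% Tween-20 buffer; beta-galactosidase complementation read by luminescence after 1 h at ambient temperature. Dopamine 57 uM final (EC100) as control.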
TRPV1 PAM: HTS Assay for Compounds that Act as Potentiators of the Vanilloid Receptor 1; potentiation, % at 8.33 µM; TRPV1-expressing cells, Fluo-8 calcium influx, capsaicin EC20 potentiation; host cell line not named in the record; control for the full effect not named in the record; AID 540277, 2011; actives 0.02% (n = 320,000); active means potentiation above 80%; inconclusive means 30% to 80%; inactive means below 30%; also: 0% is about no effect
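Cells expressing TRPV1 were dye-loaded with Fluo-8 and read kinetically: 10 s baseline, 3 min after compound (agonist portion), then 2 min after EC20 capsaicin (allosteric enhancer portion). Calcium-bound dye fluorescence at 480/520 nm.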
D2 PAM: Beta-Arrestin HTS for Positive Allosteric Modulators of the Human D2 Dopamine Receptor: Potentiators. D(2) dopamine receptor (Homo sapiens), P14416. DiscoveRx D2 beta-arrestin cells, luminescence, 90 min; 100% = 57 uM dopamine signal. potentiation, % (no concentration beside the values). actives 0.23% (n = 360,000); active = potentiation of 50% or more; inconclusive = 30% to 50%; inactive = 30% or less;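 also: compound concentration not given in the record; tested on top of an EC20 dose of dopamine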
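D2 cells co-treated with compound plus 50 nM dopamine (EC20) for 90 min at 37 deg C to detect potentiation. Beta-arrestin recruitment was read as enzyme-fragment luminescence after 1 h at ambient temperature. Full response was set by 57 uM dopamine.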
Numbers without * were called inactive; ? = inconclusive; / = not tested or not shown; & = joins results of further samples; [ ] = dose if it differs, or a comment.

SMILES | Sfp PPTase inh | CtBP-E1A inh | PINK1 modulator | Six1-Eya2 inh | D2 ag | TRPV1 PAM | D2 PAM
COc1ccc(-c2nc3ccccc3c(=O)n2CCOc2c(C)cccc2C)cc1 | 0% | -2 | 3.7% | 14 | -4.3 | 4 | -11
COc1ccc2[nH]cc(CCNS(=O)(=O)c3ccc(F)cc3)c2c1 | 9% | -4 | 1.7% | -2 | -4.0 | -9 | -3
Cc1cc([N+](=O)[O-])ccc1NC(=S)NC(=O)Cc1ccccc1 | 5% | -7 | 0.5% | -18 | -5.8 | -7 | -16
CC(OC(=O)c1ccccc1OCc1ccc(Cl)cc1)C(N)=O (stereo not given) | -1% | 0 | 1.9% | 5 | -1.3 | -11 | -12
COc1ccc(OC)c(C2C(C(=O)c3cccs3)=C(O)C(=O)N2CCN2CCOCC2)c1 (stereo not given) | ? | 2 | 1.3% | 4 | -4.1 | -3 | -2
COc1ccc(OC)c(/C=C2\Oc3cc(OCC(=O)N4CCC[C@H]4C(=O)O)ccc3C2=O)c1 | -5% | 3 | 0.4% | 1 | -7.4 | 0 | -4
O=C(Nc1cccc(Cl)c1)c1ccc(F)c(S(=O)(=O)N2CCN(c3ccccn3)CC2)c1 | 3% | -2 | 1.1% | -11 | 0.7 | 3 | -6
Cc1cc(C)cc(NC(=S)Nc2ccc3cn[nH]c3c2)c1 | 4% | -3 | 1.2% | -5 | -0.3 | -16 | -4
CCN(CC)c1ccc(/C=N/N2C(=O)c3ccccc3C2=O)c(O)c1 | ? | -3 | 11% | 6 | -8.2 | -15 | 10
Nc1[nH]c(C(=O)c2ccccc2)c(-c2ccc(F)cc2)c1C(=O)NCc1ccccc1 | / | -1 | -0.1% | 2 | / | / | /
CCn1c(SCC(=O)N/N=C/c2ccc(C)o2)nnc1-c1ccc(C)cc1 | ? | -13 | -1.1% | -14 | 1.9 | 20 | 0
CCOC(=O)/C(C#N)=C1/SC(CC)C(=O)N1c1ccc(Br)cc1 (stereo not given) | -2% | -3 | 8.4%[38.3 µM] | 3 | -1.4 | 11 | -6
CN(C)CCNc1ncnc2c1ncn2[C@H]1CN(Cc2ccncc2)C[C@@H](CO)O1 | / | 1 | 1.5% | 4 | 2.6 | / | -12
CC1CCN(C(c2nnnn2CCc2ccccc2)C(C)C)CC1 (stereo not given) | -11% | 0 | 2.1% | 3 | -2.8 | -10 | -14
O=C1C(Cl)=C(N2CCOCC2)C(=O)N1c1ccccc1Cl | 7% | -1 | 8.3%[38.3 µM] | -6 | 1.9 | -27 | -10
CCOc1ccc(Br)cc1S(=O)(=O)Nc1cccc(S(=O)(=O)N(C)c2ccccc2)c1 | 14% | -3 | 6.6% | 2 | -2.6 | 7 | -3
O=C(NCc1ccncc1)c1ccc2nc(Cc3ccccc3F)oc2c1 | 14% | 15 | ? | -1 | -4.8 | -13 | -16
CCOC(=O)Cn1nc(/C=C/c2ccc(C(C)C)cc2)ccc1=O | -13% | -4 | 0.3% | 7 | 1.2 | -3 | 4
O=C(Cn1nnc(-c2ccncc2)n1)N(C1CCCCC1)C1CCCCC1 | 0% | 4 | -0.7% | -4 | -2.1 | -17 | 3
CCCCn1c(=O)[nH]c(=O)c2c1nc(-c1ccc(OC)c(Br)c1)n2CC(C)C | 2% | -1 | -1.4% | -8 | -0.8 | ? | 1
CC1(C)C(=O)OC(c2ccc([N+](=O)[O-])cc2)C(C)(C)C1=O (stereo not given) | 4% | -1 | 2.4% | 1 | -4.5 | 6 | 9
CC(C)C1Cc2c(C#N)c(N)n(C)c(=S)c2CO1 (stereo not given) | -5% | 0 | 0.7% | 7 | -10 | 3 | -7
OCCNc1ncnc2c1ncn2[C@H]1CN(Cc2ccc(-c3ccccc3)cc2)C[C@@H](CO)O1 | / | 1 | 1.2% | -1 | 6.4 | / | -2
COc1ccc(F)cc1S(=O)(=O)NCC(c1ccco1)N1CCc2ccccc2C1 (stereo not given) | / | 2 | 1.8% | -10 | -2.6 | 23 | -4
Cc1ccnc(N/C=C(/NC(=O)c2ccccc2)C(=O)N/N=C\c2ccc(F)cc2)n1 | 10% | -3 | -0.2% | -7 | -1.5 | 7 | -27
O=C(CSc1nnc(C2CC2)n1-c1ccccc1)N1CCNC1=O | / | 24 | 0.8% | 11 | -3.5 | -2 | -1
Cc1noc(C)c1COc1ccccc1C(=O)N1CCN(S(=O)(=O)c2ccccc2F)CC1 | / | 2 | -4.7% | -1 | -2.7 | -4 | -12
Cc1ccccc1OCCC(=O)OCC(=O)NCCc1ccc(S(N)(=O)=O)cc1 | / | 4 | -0.6% | 3 | 5.3 | -2 | -4
S=C(NCc1ccco1)Nc1ccccc1Cl | ? | / | 1.8% | -2 | -3.9 | -18 | -15
COc1ccc(OC)c(Cc2nnc(CCC(=O)NC3C4CC5CC(C4)CC3C5)o2)c1 (stereo not given) | -20% | 2 | 2.4% | 3 | 2.6 | 25 | -3
Cn1cnc(C(=O)NCc2ccccc2)c1C(=O)NCc1ccccc1 | / | -18 | -0.2% | 5 | 3.4 | / | -1
CCCC(=O)Nc1sc(C)c(-c2ccc(OC)cc2)c1C#N | 15% | 9 | ? | 0 | -1.0 | -5 | 4
NNC(=S)Nc1cccc(Cl)c1 | -5% | 1 | 5.3% | -1 | -0.7 | 9 | -7
C[C@@H]1CN([C@@H](C)CO)S(=O)(=O)c2ccc(Br)cc2O[C@@H]1CN(C)C(=O)c1ccncc1 | / | -4 | -0.6% | 7 | -2.9 | / | 2
Cc1ccccc1C(=O)Nc1cccc(C(=O)N/N=C/c2ccccn2)c1 | ? | ? | 1.5% | ? | 9.2 | 4 | 2
Cc1ccccc1S(=O)(=O)N(C)C[C@@H]1OCc2cnnn2CCCC(=O)N([C@H](C)CO)C[C@@H]1C | / | -5 | 1.0% | 8 | -12 | / | -1
CCOC(=O)Cn1cc(-c2ccccc2)nn1 | 20% | 6 | -1.2% | 1 | -2.3 | 4 | -3
CCOC(=O)c1c(NC(=O)CC2SC(N)=NC2=O)sc2c1CCCC2 (stereo not given) | -4% | -20 | -0.2%[38.3 µM] | -25 | -0.7 | -9 | -6
N=C1/C(=C/c2ccc(-c3cccc(C(=O)O)c3)o2)C(=O)N=C2SC(CC(=O)N3CCOCC3)=NN12 | 19% | -16 | -0.1% | ? | 2.4 | 0 | -21
COCCn1c(COc2ccc(C)cc2)nc2ccccc21 | -4% | 0 | -0.8% | 4 | -3.5 | -19 | 0

Ordered by number of heavy atoms (smallest number first): five of the compounds above.
SMILES | Sfp PPTase inh | CtBP-E1A inh | PINK1 modulator | Six1-Eya2 inh | D2 ag | TRPV1 PAM | D2 PAM
NNC(=S)Nc1cccc(Cl)c1 | -5% | 1 | 5.3% | -1 | -0.7 | 9 | -7
CCOC(=O)Cn1cc(-c2ccccc2)nn1 | 20% | 6 | -1.2% | 1 | -2.3 | 4 | -3
CCOC(=O)c1c(NC(=O)CC2SC(N)=NC2=O)sc2c1CCCC2 (stereo not given) | -4% | -20 | -0.2%[38.3 µM] | -25 | -0.7 | -9 | -6
Cc1ccccc1S(=O)(=O)N(C)C[C@@H]1OCc2cnnn2CCCC(=O)N([C@H](C)CO)C[C@@H]1C | / | -5 | 1.0% | 8 | -12 | / | -1
N=C1/C(=C/c2ccc(-c3cccc(C(=O)O)c3)o2)C(=O)N=C2SC(CC(=O)N3CCOCC3)=NN12 | 19% | -16 | -0.1% | ? | 2.4 | 0 | -21

(more compounds)
SMILES | Sfp PPTase inh | CtBP-E1A inh | PINK1 modulator | Six1-Eya2 inh | D2 ag | TRPV1 PAM | D2 PAM
Cc1ccc(-c2nnc(SCC(=O)O)n2N)cc1 | 14% | 7 | 1.4% | 1 | -3.7 | 4 | 1
COc1cc(C)c(CN2CCC(Cc3ccccc3)CC2)cc1C | -24% | -1 | ? | 0 | -5.0 | -2 | -7
CCN(CC)CCNc1ccc(CO)c2sc3ccccc3c(=O)c12 | 15%&13%&10% | ? | -0.8% | -7 | -6.7 | 5 | -18
CCCc1ccc2oc(C(=O)NCCCN3CCOCC3)c(C)c2c1 | 10% | 0 | -0.1% | 1 | -2.9 | -13 | -9
O=C(O)c1ccccc1CSc1nc2ccccc2[nH]1 | 6% | 2 | 0.6% | 3 | -3.4 | -4 | -7
CCOC(=O)C1C(c2cccc(F)c2)NC(=S)NC1(O)C(F)(F)F (stereo not given) | 20% | 9 | 4.0% | 11 | -3.5 | 0 | -10
Cc1cc2n(c(=O)c1C#N)CCCN2c1ccccc1 | 14% | -8 | -2.1%[38.3 µM] | 4 | -0.3 | 16 | -6
COc1ccc(NC(=O)CN2C(=O)NC(c3ccccc3)(c3ccccc3)C2=O)cc1OC | 15% | 0 | -0.9% | -14 | -2.8 | 6 | -12
C/C=C(/C)C(=O)OC1Cc2c(ccc3ccc(=O)oc23)OC1(C)C (stereo not given) | 2%&-17% | 0 | 0.9%&3.2% | 5 | -1.8 | -9 | -15
CCC(=O)OCCNc1cc(Sc2nccn2C)c2nonc2c1[N+](=O)[O-] | ? | 1 | -1.6% | -18 | -6.2 | -4 | -43
CCOc1ccc(N(CC(=O)N2CCN(c3ccccc3)CC2)S(=O)(=O)c2c(C)noc2C)cc1 | 11% | -7 | 2.2% | -8 | -1.1 | 1 | -4
N#Cc1ccc(S(=O)(=O)N2CCN(c3ncccn3)CC2)cc1 | 9% | / | 3.5% | 2 | -7.8 | 16 | -15
O=C(COc1ccc(C(=O)c2ccccc2)cc1)NCC(=O)Nc1ccccc1Br | 1% | / | 0.3% | -5 | -1.6 | 11 | -3
CCOc1ccc(-n2c(=O)c3sccc3n(CC(=O)NCCc3ccc(OC)c(OC)c3)c2=O)cc1 | -14% | / | 0.3% | 4 | -0.7 | -4 | -10
COCCSc1nnc(NC(=O)Cc2ccc(OC)c(OC)c2)s1 | 10% | -5 | 1.5% | -7 | 4.5 | -17 | -22

Screening data deposited in PubChem BioAssay by National Center for Advancing Translational Sciences (NCATS).
